# Assay outcomes as filed in PubChem BioAssay.
# Ecoli rRNA inh – selective bacterial rRNA inhibition in E. coli | GFP signal change (wild-type ribosome), % (concentration not given with the values) | E. coli WT GFP vs humanized-ribosome RFP mutants, fluorescence, 24 h; hits give low values; DMSO median 0, no signal -100 | 350,000 compounds, 1.6% hits;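 active = significant combined selectivity score with lowered wild-type GFP, culture density cut under 30%, mutant RFP and density less affected; inactive = any of these conditions unmet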; also: one replicate is shown; some compounds called inactive have numbers as strong as hits
# FGF22 binding – FGF22 (human) thermal shift binding | Q9HCT0 | recombinant FGF22 thermal shift, SYPRO orange fluorescence; percent of sucrose octasulfate shift, DMSO zero | calls only at 9.99 µM | 340,000 compounds, 1.5% hits | AID 651658;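 active = melting point raised past a set limit in the mean and every replicate; three in four hits are not shown here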
# Target sequence (Q9HCT0 whole entry, looked up): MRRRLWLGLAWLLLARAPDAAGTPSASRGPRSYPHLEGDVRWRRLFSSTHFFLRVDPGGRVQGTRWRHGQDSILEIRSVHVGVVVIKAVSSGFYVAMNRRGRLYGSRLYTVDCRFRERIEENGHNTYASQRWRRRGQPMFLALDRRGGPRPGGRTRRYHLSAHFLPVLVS
# Ecoli rRNA inh OD600 – also measured in Ecoli rRNA inh; calls as there; OD600 change, %; measured here: OD600 growth;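 optical density of the mix in the first replicate; 0 = DMSO median and -100 = no signal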
# Ecoli rRNA inh RFP – second read-out of Ecoli rRNA inh, no call of its own (marks repeat the call); RFP signal change, %; measured here: RFP humanized mutant strains;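 first replicate; 0 = DMSO median and -100 = no signal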
# Starred values were filed as active, the others as inactive; i = inactive; & = joins results of further samples.
entry	SMILES	Ecoli rRNA inh	Ecoli rRNA inh OD600
1	Cc1cc(S(=O)(=O)NC(=O)[C@H]2O[C@@H](n3ccc(=O)[nH]c3=O)[C@H](O)[C@@H]2O)ccc1Br	11	10
2	Cc1[nH]c2ccccc2c1CC(=O)Nc1ccc(Nc2cccnc2)c(-c2cc(C(F)(F)F)cc(C(F)(F)F)c2)c1	13	21
3	C[C@@H]1CN([C@@H](C)CO)C(=O)c2cc(NC(=O)NC3CCCCC3)ccc2O[C@@H](C)CCCCO[C@@H]1CN(C)C(=O)Nc1ccc2c(c1)OCO2	0	2
4	O=C(C[C@H]1C[C@H]2c3cc(NC(=O)Nc4ccc(F)cc4)ccc3O[C@H]2[C@@H](CO)O1)NC1CCCCC1	-1	-2
5	Cc1noc(C)c1NC(=O)N(C)C[C@H]1OCCCC[C@@H](C)Oc2ccc(NS(=O)(=O)c3cn(C)cn3)cc2C(=O)N([C@@H](C)CO)C[C@H]1C	0	12
6	C[C@H]1CN([C@@H](C)CO)C(=O)Cc2cc(NS(C)(=O)=O)ccc2O[C@H]1CN(C)S(=O)(=O)c1cn(C)cn1	6	10
7	COc1ccc(S(=O)(=O)Nc2ccc3c(c2)C(=O)N([C@H](C)CO)C[C@@H](C)[C@@H](CN(C)C(=O)Nc2cccc4ccccc24)OCCCC[C@@H](C)O3)cc1	-4	-1
8	COCC(=O)Nc1ccc2c(c1)[C@H]1C[C@H](CC(=O)N3CCN(C)CC3)O[C@H](CO)[C@H]1O2	3	6
9	COc1cccc(NC(=O)N(C)C[C@@H]2Oc3ncc(/C=C/c4ccccc4)cc3C(=O)N([C@H](C)CO)C[C@@H]2C)c1	-8	-7
10	CN1C(=O)c2cc(NC(=O)c3cccs3)ccc2OC[C@@H]2O[C@@H](CC(=O)NCC3CC3)CC[C@@H]21	-1	1

entry	Ecoli rRNA inh RFP	FGF22 binding
1	5.1	i
2	3.7	i
3	-1.1	i
4	-1.7	i
5	-1.8	i
6	1.4	i
7	0.7	i
8	-2.8	i
9	9.2	i
10	0.3	i

# Later entries
entry	SMILES	Ecoli rRNA inh	Ecoli rRNA inh OD600
11	CN1CCCCC(NC(=O)C23CC4CC(CC(C4)C2)C3)C1=O (centres undefined)	8	8
12	COC(=O)c1ccc(CN2CC(=O)N3[C@H](CO)[C@@H](c4ccc(Br)cc4)[C@H]3C2)cc1	-1	-1
13	CC(=O)N1[C@@H]2c3ccc(-c4ccc(F)cc4)c(=O)n3C[C@@H]2[C@@H](CO)[C@@H]1C(=O)N(C)C	6	6
14	C[C@@H]1CN([C@@H](C)CO)C(=O)Cc2cc(NC(=O)Cc3ccccc3)ccc2O[C@@H]1CN(C)S(=O)(=O)c1cn(C)cn1	1	-1
15	Cc1ccc(S(=O)(=O)Nc2ccc3c(c2)C(=O)N([C@H](C)CO)C[C@@H](C)[C@@H](CN(C)Cc2ccccc2)OCCCC[C@@H](C)O3)cc1	4	-19
16	CO[C@H]1CN(C)C(=O)c2cc(NC(=O)Nc3ccc(Cl)cc3)ccc2OC[C@H](C)NC[C@@H]1C	-6	0
17	O=C(CN1CCOCC1)N1CC[C@@H]2[C@@H](CO)Nc3ccc(Br)cc3[C@@H]21	13	32
18	COC(=O)C1=C(C)N(Cc2ccccc2)C(=S)NC1c1cccc(OC)c1 (centres undefined)	-29*	-18*
19	Cc1cccc(OCCCN2CCC(C(O)(c3ccccc3)c3ccccc3)CC2)c1	-54	-78
20	Cn1cnc(S(=O)(=O)N2C[C@H](O)COC[C@H]3O[C@@H](CC(=O)NCc4cccc(F)c4)CC[C@@H]32)c1	-2	-4

entry	Ecoli rRNA inh RFP	FGF22 binding
11	4.0	i
12	2.5	i
13	-0.8	i
14	-2.1	i
15	9.3	i
16	4.0	i
17	1.0	i
18	-6.2*	i
19	-19	i
20	-3.8	i

# (next part)
entry	SMILES	Ecoli rRNA inh	Ecoli rRNA inh OD600
21	C[C@@H]1CCCCO[C@H](CN(C)Cc2ccc3c(c2)OCO3)[C@H](C)CN([C@H](C)CO)C(=O)c2cc(NS(=O)(=O)c3cn(C)cn3)ccc2O1	0	4
22	C[C@@H]1CCCCO[C@H](CN(C)C(=O)Nc2ccc(C(F)(F)F)cc2)[C@@H](C)CN([C@@H](C)CO)C(=O)c2cc(NC(=O)Cc3ccccc3)ccc2O1	0	-1
23	COC(=O)C1(C(=O)OC)c2ncccc2N(S(=O)(=O)c2ccc(C)cc2)C1CC(=O)c1ccccc1 (centres undefined)	-2	-3
24	COc1cccc(NC(=O)C[C@@H]2CC[C@H]3[C@@H](COc4ccc(NS(=O)(=O)c5cccc(F)c5)cc4C(=O)N3C)O2)c1	1	1
25	COc1ccc(C2CC(=O)C(c3ccc(C(C)=O)cc3)=CN2Cc2ccccc2)cc1 (centres undefined)	-16	-7
26	COc1ccc(NC(=O)N(C)C[C@H]2OCCCC[C@@H](C)Oc3ccc(NS(=O)(=O)c4c(C)noc4C)cc3C(=O)N([C@@H](C)CO)C[C@H]2C)cc1	1	-7
27	CC(CNC(=O)[C@H]1O[C@@H](n2cnc3c(=O)[nH]c(N)nc32)[C@H](O)[C@@H]1O)c1ccccc1 (some centres undefined)	14	-3
28	CC(=O)C1=C(C)N(Cc2ccc(Br)cc2)C(=S)NC1c1cccc(Cl)c1 (centres undefined)	13	15
29	C[C@H]1CN([C@@H](C)CO)C(=O)c2cccc(NC(=O)Nc3ccc4c(c3)OCO4)c2O[C@@H]1CN(C)C(=O)Nc1ccccc1	0	7
30	Cc1cc(N2CCNC[C@@H]2C)ccc1N1C[C@@H](C)O[C@@H](C)C1	10	16

entry	Ecoli rRNA inh RFP	FGF22 binding
21	-1.0	i
22	-0.9	i
23	2.2	i
24	5.8	i
25	-0.5	i
26	1.5	i
27	1.5	i
28	10	i
29	-2.1	i
30	-0.4	i

# Values in list order from the list.
# Nos. 22–29 in Ecoli rRNA inh, in turn: 0, -2, 1, -16, 1, 14, 13, 0
# Nos. 22–29 in FGF22 binding, in turn: i, i, i, i, i, i, i, i
# Nos. 22–29 in Ecoli rRNA inh OD600, in turn: -1, -3, 1, -7, -7, -3, 15, 7

# Remaining list, next part:
entry	SMILES	Ecoli rRNA inh	Ecoli rRNA inh OD600
31	CO[C@@H]1CC[C@H]2CCOc3ccc(C#N)cc3C(=O)N(C)[C@@H](C)C(=O)N(C)C[C@@H]1O2	-2	3
32	C[C@H]1CCCCO[C@H](CN(C)Cc2ccccc2)[C@@H](C)CN([C@@H](C)CO)C(=O)c2cc(NC(=O)c3ccccc3)ccc2O1	-4	-1
33	C[C@@H]1ON(C)[C@H]2C[C@H]3c4cc(-c5cccc(Cl)c5)ccc4CCN3C[C@@H]12	-42	-68
34	C[C@@H]1CCCCO[C@@H](CN(C)C(=O)Nc2ccc3c(c2)OCO3)[C@H](C)CN([C@@H](C)CO)C(=O)c2cc(NC(=O)Cc3ccccc3)ccc2O1	-3	-11
35	N#Cc1cccc(-c2ccc(C3[C@@H]4CN(C(=O)c5cccnc5)C[C@H]3N4)cc2)c1 (some centres undefined)	0&7	16&13
36	COC(=O)C1=C(C)N(Cc2ccccc2C(F)(F)F)C(=NCC2CC2)NC1CCc1ccccc1 (centres undefined)	-45	-77
37	O=C(C[C@H]1CC[C@@H]2[C@H](COC[C@H](O)CN2C(=O)Nc2ccc(Cl)cc2)O1)NC1Cc2ccccc2C1	-53	-63
38	CN(C)C(=O)c1ccc(-c2ccc(C3[C@H]4CNC[C@@H]3N4CC3CCCCC3)cc2)cc1 (some centres undefined)	-3	11
39	O=C(C[C@@H]1CC[C@H]2[C@@H](COC[C@H](O)CN2Cc2ccccc2F)O1)NC1CCC1	1	3
40	COc1ccc(C#Cc2ccc([C@@H]3[C@H]4CN(C(=O)Nc5cccc(F)c5)CCCCN4[C@H]3CO)cc2)cc1	4	4

entry	Ecoli rRNA inh RFP	FGF22 binding
31	-2.1	i
32	1.2	i
33	-5.0	i
34	0.2	i
35	-0.2&1.2	i
36	-13	i
37	-13	i
38	2.0	i
39	-6.6	i
40	-0.5	i

# (listing goes on)
entry	SMILES	Ecoli rRNA inh	Ecoli rRNA inh OD600
41	C[C@@H]1ON(C)[C@H]2C[C@H]3c4[nH]c5c(-c6cc(Cl)cc(Cl)c6)cccc5c4CCN3C(=O)[C@@H]12	-21	-6
42	Brc1ccc2nc(-c3ccc(CN4CCC(c5nc6ccccc6[nH]5)CC4)cc3)c(-c3ccccc3)nc2c1	6	-22
43	COc1ccc(NC(=O)Nc2ccc3c(c2)CC(=O)N([C@H](C)CO)C[C@@H](C)[C@@H](CN(C)Cc2ccc(C(F)(F)F)cc2)O3)cc1	3	1
44	C[C@@H]1CN([C@H](C)CO)C(=O)Cc2cc(NC(=O)Nc3ccc4c(c3)OCO4)ccc2O[C@H]1CN(C)S(=O)(=O)c1cccs1	-3	-5
45	COc1ccc(S(=O)(=O)N(C)C[C@@H]2Oc3ccc(NS(=O)(=O)c4ccc(C)cc4)cc3CC(=O)N([C@@H](C)CO)C[C@@H]2C)cc1	-2	-1
46	COc1ccc(NC(=O)N(C)C[C@@H]2OCCCC[C@H](C)Oc3ccc(NC(=O)c4ccncc4)cc3C(=O)N([C@H](C)CO)C[C@H]2C)cc1	1	3
47	Cn1cnc(S(=O)(=O)N2C[C@@H](O)COC[C@@H]3O[C@H](CC(=O)NCc4cccc(F)c4)CC[C@H]32)c1	-2	-10
48	COc1ccccc1CNC(=O)C[C@@H]1CC[C@@H]2[C@@H](COc3ccc(NC(C)=O)cc3C(=O)N2C)O1	4	6
49	CCCN1C[C@H](C)[C@@H](OC)CN(C)C(=O)c2cc(NC(=O)c3cnccn3)ccc2OC[C@H]1C	3	-2
50	C[C@@H]1CN([C@@H](C)CO)C(=O)Cc2cc(NC(=O)Nc3ccc4c(c3)OCO4)ccc2O[C@H]1CN(C)S(=O)(=O)c1cccs1	-7	-3

entry	Ecoli rRNA inh RFP	FGF22 binding
41	13	i
42	31	i
43	-1.3	i
44	-0.9	i
45	-1.4	i
46	-0.9	i
47	-3.7	i
48	-1.2	i
49	0.0	i
50	-2.1	i

# 3 records picked at random from the list so far:
entry	SMILES	Ecoli rRNA inh	Ecoli rRNA inh OD600
10	CN1C(=O)c2cc(NC(=O)c3cccs3)ccc2OC[C@@H]2O[C@@H](CC(=O)NCC3CC3)CC[C@@H]21	-1	1
39	O=C(C[C@@H]1CC[C@H]2[C@@H](COC[C@H](O)CN2Cc2ccccc2F)O1)NC1CCC1	1	3
35	N#Cc1cccc(-c2ccc(C3[C@@H]4CN(C(=O)c5cccnc5)C[C@H]3N4)cc2)c1 (some centres undefined)	0&7	16&13

entry	Ecoli rRNA inh RFP	FGF22 binding
10	0.3	i
39	-6.6	i
35	-0.2&1.2	i

# The list goes on:
entry	SMILES	Ecoli rRNA inh	Ecoli rRNA inh OD600
51	COc1cccc(-c2ccc3n(c2=O)C[C@H]2[C@H](CO)[C@@H](C(=O)NCC4CC4)[C@@H]3N2S(C)(=O)=O)c1	1	-1
52	CC(C)(C)OC(=O)N1CCC2CCN(S(=O)(=O)c3ccccc3)CC21 (centres undefined)	-8	-14
53	Cc1noc(C)c1NC(=O)N(C)C[C@H]1OCCCC[C@@H](C)Oc2ccc(NS(=O)(=O)c3cn(C)cn3)cc2C(=O)N([C@@H](C)CO)C[C@@H]1C	3	0
54	Cc1[nH]nc2c1C(c1ccc(F)cc1)N(Cc1ccccc1)C2=O (centres undefined)	-21*	-9.2*
55	C[C@@H]1CCCCO[C@@H](CN(C)S(C)(=O)=O)[C@@H](C)CN([C@H](C)CO)C(=O)c2cc(NS(C)(=O)=O)ccc2O1	0	-1
56	NC(=O)[C@@H]1CCCN1C(=O)[C@@H](Cc1ccccc1)NC(=O)[C@H]1O[C@@H](n2ccc(=O)[nH]c2=O)[C@H](O)[C@@H]1O	19	19
57	O=C(C[C@H]1CC[C@@H]2[C@H](COC[C@H](O)CN2S(=O)(=O)c2cccc(Cl)c2)O1)N1CCCCC1	-1	-7
58	COc1ccc(NC(=O)Nc2cccc3c2O[C@H](CN(C)S(=O)(=O)c2ccc(F)cc2)[C@H](C)CN([C@@H](C)CO)C3=O)cc1	-1	3
59	C[C@@H]1CN([C@@H](C)CO)C(=O)Cc2cc(NC(=O)CCC(F)(F)F)ccc2O[C@@H]1CN(C)C(=O)Nc1ccc(C(F)(F)F)cc1	-2	-4
60	COc1ccccc1-c1cnc2c(c1)C(=O)N([C@@H](C)CO)C[C@@H](C)[C@@H](CN(C)C(=O)c1ccccc1)O2	-3	5
61	CCCNC(=O)C[C@H]1C[C@@H]2c3cc(NS(=O)(=O)c4ccc(OC)cc4)ccc3O[C@@H]2[C@@H](CO)O1	-4	2
62	C[C@@H]1CCCCO[C@H](CN(C)Cc2ccncc2)[C@H](C)CN([C@H](C)CO)C(=O)c2cc(NC(=O)Nc3ccc(F)cc3)ccc2O1	0	0
63	COc1ccc(S(=O)(=O)Nc2ccc3c(c2)C(=O)N([C@H](C)CO)C[C@H](C)[C@H](CN(C)CC2CCCCC2)OCCCC[C@H](C)O3)cc1	1	-24

entry	Ecoli rRNA inh RFP	FGF22 binding
51	-0.5	i
52	-2.5	i
53	-0.9	i
54	-2.3*	i
55	0.3	i
56	0.4	i
57	-5.5	i
58	0.1	i
59	-1.1	i
60	-1.9	i
61	0.6	i
62	-1.7	i
63	15	i

# Not all compounds are listed; the hit share may differ from the screen's.
